From PubChem BioAssay
miR-21 reporter: raises the signal of a miR-21 reporter; HeLa miR-21 FLuc reporter, luciferase, 48 h; Potency, µM (doses to about 38.3 µM), inactives show at the highest dose reporter change, positive = more light; 340,000 tested, under 10 active; AID 2288; active = well fitted rising curve with a large enough effect; inconclusive = small, poorly fitted or top-dose-only effect; inactive = no such curve, though single readings can be large or run the other way;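 also: % of control where 0% means no effect; miR-21 action dims this reporter so a rising signal means less miR-21 action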
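HeLa cells endogenously expressing miR-21, stably carrying CMV-driven firefly luciferase with a downstream miR-21 binding site, 2000 cells/well. Titrations up to approximately 40 uM, 48 hours; luciferase luminescence read.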
Rango complex inh: Rango-importin beta binding inhibition; Q14974; Rango CFP/YFP FRET sensor + importin beta, 45 min; Potency, µM (series often up to 92.2 µM), for the others: at the top dose inhibition of complex formation; 340,000 compounds, 0.031% hits; active = rising FRET ratio curve, often small or poorly fitted; inconclusive = mostly compound fluorescence or quenching in the first reads; inactive = flat curves in all reads;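 also: potency is read from the fitted curve at half-maximal effect; 0% = DMSO wells and 100% = buffer wells lacking importin beta; nearly all actives have a fitted effect of over 15% in size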
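Inhibition scored from the CFP 486 nm/YFP 530 nm FRET ratio 45 min after adding 0.125 microM importin beta to 50 nM Rango biosensor preincubated 5 min with compound (room temperature, PBS with DTT, Tween-20, BSA). No-importin wells as positive control.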
Rango release inh: prevents RanGTP from dissociating the Rango-importin beta complex. O95149+P62826. Biochemical FRET Rango-importin beta, RanGTP-induced dissociation. Potency, µM (doses to about 46.1 µM), without a hit: at the top dose activity change, negative = inhibition. 340,000 compounds, 0.071% hits. AID 540253; active means falling FRET ratio curve, often poorly fitted, with flat reads before Ran was added; inconclusive means other falling curves, or compound fluorescence or quenching; inactive means flat or rising ratio curve;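 also: potency is read from the fitted curve at half-maximal effect; % of control where 0% means no effect; nearly all actives have a fitted effect of over 45% in size; -100% = wells without RanGTP and RCC1; the record marks most hits as doubtful in a second field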
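Compounds sat 5 min at room temperature with 0.1 uM Rango biosensor plus 0.25 uM importin beta, then FRET pre-read. RanGTP-RCC1 (0.6 uM Ran, 2mM GTP, 0.2 uM RCC1) added for 45 min, and the CFP/YFP post-read measured blocked complex dissociation.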
GLA inh pH 4.5: inhibitors of human alpha-galactosidase A at pH 4.5. AID 1467. activity change, negative = inhibition, % at 105 µM. 230,000 tested, under 10 active. P06280. purified enzyme, 4-MU-alpha-Gal fluorescence, pH 4.5; inconclusive = small, poorly fitted or top-dose-only inhibition, or a rising curve; inactive = flat fitted curve, though single readings scatter; no compound was filed as active;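 also: 0% = full activity with enzyme and -100% = basal without enzyme; dose as in the result columns while the protocol names 77 µM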
Target sequence (P06280 whole entry, looked up): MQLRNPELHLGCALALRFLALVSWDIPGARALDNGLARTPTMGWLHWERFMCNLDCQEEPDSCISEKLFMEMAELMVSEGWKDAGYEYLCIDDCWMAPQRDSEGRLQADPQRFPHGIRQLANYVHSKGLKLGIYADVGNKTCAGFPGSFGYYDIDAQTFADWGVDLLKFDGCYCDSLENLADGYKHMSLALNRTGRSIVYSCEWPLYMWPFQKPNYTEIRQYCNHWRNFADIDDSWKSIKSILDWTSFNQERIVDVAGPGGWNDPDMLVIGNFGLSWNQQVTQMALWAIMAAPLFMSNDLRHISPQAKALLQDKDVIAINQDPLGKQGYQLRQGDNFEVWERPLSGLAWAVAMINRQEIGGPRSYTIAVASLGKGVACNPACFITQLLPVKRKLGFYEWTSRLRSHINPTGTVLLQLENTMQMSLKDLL
* marks the source's active call; other numbers are inactive results.

Screening Cc1cccn2c(=O)c(/C=N/O)c(N3CCCC3)nc12 returned miR-21 reporter -5%, Rango complex inh -6.8%, Rango release inh 9% and GLA inh pH 4.5 7.
Cc1cc(C(c2ccc(O)cc2)c2cc(C)c(O)cc2C)c(C)cc1O was read as miR-21 reporter 11%, Rango complex inh 5.7% and Rango release inh 2%.
Screening C=CCNC(=O)c1cccc(C(F)(F)F)c1 returned miR-21 reporter -1%, Rango complex inh -1.7%, Rango release inh 16% and GLA inh pH 4.5 -13.
For Cc1nn(C)cc1C(C(=O)NC1CCCCC1)N(C(=O)c1cnccn1)c1ccc(Oc2ccccc2)cc1 (stereo not given) the results were miR-21 reporter -5%, Rango complex inh -1.7%, Rango release inh 2% and GLA inh pH 4.5 -25.
For Nn1c(COc2cccc(Cl)c2)nc2ccccc2c1=O the results were miR-21 reporter -59%, Rango complex inh 2.8%, Rango release inh 2% and GLA inh pH 4.5 0.
For Clc1ccc(Cn2nnc(-c3ccccc3)n2)cc1 the results were miR-21 reporter -44%, Rango complex inh -2.0%, Rango release inh 6% and GLA inh pH 4.5 -2.
`CN(C)CCCNCCCNC(=O)c1ccncc1` gave miR-21 reporter -1%, Rango complex inh -4.8%, Rango release inh -6% and GLA inh pH 4.5 4.
`CCc1nc(C)cn1S(=O)(=O)c1cc(F)ccc1OC` gave miR-21 reporter -14%, Rango complex inh 3.0%, Rango release inh -10% and GLA inh pH 4.5 4.
Screening COC(=O)C1CCN(C(=O)COC(=O)c2ccc3[nH]c4c(c3c2)CCCC4)CC1 returned Rango complex inh 0.2% and Rango release inh 5%.
`CCOC(=O)c1sc(N/N=C/c2cccc(C)c2)nc1C` gave miR-21 reporter -35%, Rango complex inh -5.9%, Rango release inh -2% and GLA inh pH 4.5 -1.
Screening Cc1ccc(CN2CCN(/N=C/c3ccc(C(=O)O)cc3)CC2)c(C)c1 returned miR-21 reporter -17%, Rango complex inh 2.2%, Rango release inh 1% and GLA inh pH 4.5 8.
C/C(N)=C(/C#N)C(=O)COC(=O)C1CCN(C(=O)c2ccc(Cl)cc2)CC1 was read as miR-21 reporter -1%, Rango complex inh 0.0%, Rango release inh -4% and GLA inh pH 4.5 3.
COc1ccc(-c2cc(C(F)(F)F)nc(SCC(=O)Nc3ccc4c(c3)OCO4)n2)cc1 was read as miR-21 reporter -11%, Rango complex inh 1.0%, Rango release inh -12% and GLA inh pH 4.5 1.
Screening CC(=O)Nc1nonc1-n1nnc(C(=O)NCc2ccccc2)c1C returned miR-21 reporter -13%, Rango complex inh 1.9%, Rango release inh 21% and GLA inh pH 4.5 0.
`O=C1NC(c2ccccc2)N=C2Oc3ccccc3C=C12` (stereo not given) gave Rango complex inh inconclusive and Rango release inh inconclusive.
`CCOc1ccc(NC(=O)c2ccccn2)cc1` gave miR-21 reporter inconclusive, Rango complex inh -2.0%, Rango release inh 5% and GLA inh pH 4.5 -9.
CCOc1ccccc1OCC(=O)NN=C1CCCC(=O)C1 was read as Rango complex inh inconclusive and Rango release inh -19%.
COc1cc(NC(=O)NC(C)(C(F)(F)F)C(F)(F)F)cc(OC)c1OC was read as miR-21 reporter 3%, Rango complex inh 1.1%, Rango release inh 1% and GLA inh pH 4.5 3.
For COc1ccc(C)cc1NC(=O)NCCCCc1ccccc1 the results were miR-21 reporter 4%, Rango complex inh 2.2% and Rango release inh 2%.
COCCCNC(=O)CC1C[C@H](C(=O)N2CCOCC2)[C@@]2(C)c3[nH]c4ccc(OC)cc4c3CCN2C1=O (stereo not given in full) was read as Rango complex inh 5.3% and Rango release inh 6%.
For O=C1CS/C(=N/N=C2C3CC4CC(C3)CC2C4)N1 the results were miR-21 reporter -23%, Rango complex inh 0.5%, Rango release inh inconclusive and GLA inh pH 4.5 6.
`CCC(O)(Cc1ccccn1)Cc1ccccn1` gave Rango complex inh 0.4% and Rango release inh -17%.
For CCOC(=O)C1(Cc2ccccc2)CCN(Cc2cn[nH]c2-c2ccccc2)CC1 the results were miR-21 reporter 12%, Rango complex inh 1.9%, Rango release inh 1% and GLA inh pH 4.5 -14.
Screening O=C(N/N=C/c1cn(-c2cccs2)nc1-c1ccccc1)c1ccccc1Cl returned miR-21 reporter -4%, Rango complex inh -1.3%, Rango release inh 3% and GLA inh pH 4.5 -6.
For CC(C)NC(=O)C(c1ccc(F)cc1)N(C(=O)CCC(=O)Nc1ccccn1)c1cccc(F)c1 (stereo not given) the results were miR-21 reporter 2%, Rango complex inh 6.4% and Rango release inh 1%.
Screening COCC(=O)N1CCCC(C(=O)c2ccc(-c3ccccc3)cc2)C1 (stereo not given) returned miR-21 reporter -16%, Rango complex inh 1.5% and Rango release inh -12%.
Screening CCCCN1CC(=O)N2[C@H](c3ccc(OC)cc3)[C@@H]3C(=O)N(CC)C(=O)[C@@H]3[C@]2(C)C1=O returned miR-21 reporter -1%, Rango complex inh 1.5% and Rango release inh -7%.
`COCCCN(C(=O)CCOc1ccc(C(C)(C)C)cc1)c1c(N)n(Cc2ccccc2)c(=O)[nH]c1=O` gave Rango complex inh -3.2% and Rango release inh -3%.
`COc1ccccc1N1CCN(C2CCCN(C(=O)c3ccoc3C)C2)CC1` (stereo not given) gave miR-21 reporter -3%, Rango complex inh 3.3% and Rango release inh 6%.
For Fc1ccc(CSc2nnc(-c3cccnc3)n2Cc2ccco2)cc1 the results were miR-21 reporter -9%, Rango complex inh -2.2%, Rango release inh -12% and GLA inh pH 4.5 6.
For OC(COCc1cccs1)CN1CCCCCC1 (stereo not given) the results were miR-21 reporter -9%, Rango complex inh 1.2%, Rango release inh inconclusive and GLA inh pH 4.5 -1.
`c1ccc2c(c1)NCCS2` gave miR-21 reporter -26%, Rango complex inh inconclusive, Rango release inh -14% and GLA inh pH 4.5 -3.
Screening CCCCCc1ccc(OCCCC[n+]2ccc(C)cc2)c(CCCCC)c1 returned miR-21 reporter inconclusive, Rango complex inh 5.8%, Rango release inh -1% and GLA inh pH 4.5 -1.
Screening COc1ccc2c(c1)OC[C@H]1[C@H]2N2C(=O)CN(Cc3ccc(F)cc3)C(=O)[C@@]2(C)[C@H]1c1ccccc1 returned Rango complex inh 0.1% and Rango release inh 1%.
For COc1ccc(C(=O)N2CCN(c3ccc(C)cc3C)CC2)cc1OC the results were miR-21 reporter -13%, Rango complex inh 6.7%, Rango release inh 2% and GLA inh pH 4.5 15.
For CC(=O)C1CCC2C3CCC4=CC(=O)CCC4(C)C3(Br)C(=O)CC12C (stereo not given) the results were Rango complex inh 1.4% and Rango release inh 4%.
Screening COc1ccc(C2=CC(c3ccc(OC)c(OC)c3)n3nnnc3N2)c(OC)c1 (stereo not given) returned miR-21 reporter -12%, Rango complex inh inconclusive, Rango release inh inconclusive and GLA inh pH 4.5 -5.
O=C(CNC(=O)c1ccccc1F)NCCN1C(=O)S/C(=C\c2ccc3c(c2)OCO3)C1=O was read as Rango complex inh -0.3% and Rango release inh -8%.
Screening CC1(C)CC(=O)C2=C(C1)OC(N)=C(C#N)C2c1cc2c(cc1[N+](=O)[O-])OCO2 (stereo not given) returned miR-21 reporter -11%, Rango complex inh inconclusive, Rango release inh 16µM* and GLA inh pH 4.5 -10.
`O=C(c1cccc(N2C(=O)C3C4C=CC(C4)C3C2=O)c1)N1CCN(c2ccc(F)cc2)CC1` (stereo not given) gave miR-21 reporter 3%, Rango complex inh -2.1% and Rango release inh -5%.

Entries listed so far with a cyano group (2):
C/C(N)=C(/C#N)C(=O)COC(=O)C1CCN(C(=O)c2ccc(Cl)cc2)CC1 was read as miR-21 reporter -1%, Rango complex inh 0.0%, Rango release inh -4% and GLA inh pH 4.5 3.
Screening CC1(C)CC(=O)C2=C(C1)OC(N)=C(C#N)C2c1cc2c(cc1[N+](=O)[O-])OCO2 (stereo not given) returned miR-21 reporter -11%, Rango complex inh inconclusive, Rango release inh 16µM* and GLA inh pH 4.5 -10.

Next part:
`Cc1ccc(C)c(S(=O)(=O)NCc2ccncc2)c1` gave miR-21 reporter 5%, Rango complex inh -0.6%, Rango release inh 18% and GLA inh pH 4.5 -1.
Screening COc1ccc(C)cc1NC(=O)C1CCN(S(=O)(=O)c2cccs2)CC1 returned miR-21 reporter -1%, Rango complex inh -0.3% and Rango release inh -6%.
CC(C)CCNC(=O)C(c1cccs1)N(CC1CCCO1)C(=O)Cn1nnc2ccccc21 (stereo not given) was read as miR-21 reporter -11%, Rango complex inh -1.6%, Rango release inh -19% and GLA inh pH 4.5 3.
CCC(C)c1cc(S(=O)(=O)N2CCOCC2)ccc1OC (stereo not given) was read as miR-21 reporter -17%, Rango complex inh 6.0%, Rango release inh 1% and GLA inh pH 4.5 6.
Screening COc1cc(C(=S)N2CCN(c3cccc(Cl)c3)CC2)ccc1O returned miR-21 reporter 19%, Rango complex inh -1.3%, Rango release inh 0% and GLA inh pH 4.5 -4.
`O=C1N[C@@H](c2ccccc2)COC(=O)[C@@H](Cc2ccc(F)cc2)C/C=C\C[C@@H]1CC(=O)N(CCO)Cc1ccccc1` gave Rango complex inh -0.9% and Rango release inh 8%.
Screening O=C(Nc1ccc2c(c1)OCO2)C1CC(=O)N(CCc2ccccc2)C1 (stereo not given) returned miR-21 reporter -17%, Rango complex inh -4.2%, Rango release inh 0% and GLA inh pH 4.5 -1.
Screening Cc1cccc(C)c1NC(=O)N1CCCCCCC1 returned miR-21 reporter -4%, Rango complex inh inconclusive, Rango release inh 0% and GLA inh pH 4.5 -1.
`Cn1c(=O)[nH]c(=O)c2c1nc(Br)n2CCSc1nnnn1-c1ccccc1` gave miR-21 reporter -1%, Rango complex inh -1.3%, Rango release inh 0% and GLA inh pH 4.5 -5.
Screening CCN(CC)CCN1C(=O)c2oc3ccccc3c(=O)c2C1c1cccc(Br)c1 (stereo not given) returned miR-21 reporter -6%, Rango complex inh -1.3%, Rango release inh 3% and GLA inh pH 4.5 -8.
COc1ccc(S(=O)(=O)N2CCC(C(=O)NCCOc3ccccc3F)CC2)cc1OC was read as Rango complex inh -0.1% and Rango release inh -7%.
`CC(OC(=O)c1ccccc1Nc1ccc(SC(F)F)cc1)C(N)=O` (stereo not given) gave miR-21 reporter 10%, Rango complex inh 1.9%, Rango release inh 13% and GLA inh pH 4.5 3.
Screening CC(=O)Nc1ccc(S(=O)(=O)NC(CC(=O)NC2CCCCC2C)C(C)C)cc1 (stereo not given) returned miR-21 reporter -2%, Rango complex inh -0.1%, Rango release inh 1% and GLA inh pH 4.5 1.
`Cc1ccccc1NC(=O)CC1SC(=NC2CCCCC2)NC1=O` (stereo not given) gave miR-21 reporter 1%, Rango complex inh -2.1%, Rango release inh -4% and GLA inh pH 4.5 6.
`COc1ccc(S(=O)(=O)Nc2cc3c4c(c2)C(C)C(=O)N4CCC3)cc1OC` (stereo not given) gave Rango complex inh inconclusive and Rango release inh -16%.
For O=C(Oc1ccc(NC2=C(Cl)C(=O)c3ccccc3C2=O)cc1)c1ccc([N+](=O)[O-])cc1 the results were miR-21 reporter -2%, Rango complex inh 0.5%, Rango release inh 22% and GLA inh pH 4.5 6.
`CCN(CCn1cccn1)C(=O)CC1C(=O)NCCN1Cc1ccc(OC)c(OC)c1` (stereo not given) gave miR-21 reporter 2%, Rango complex inh 3.1%, Rango release inh -5% and GLA inh pH 4.5 1.

A draw from above in order of SMILES length, lowest first:
For CC(=O)C1CCC2C3CCC4=CC(=O)CCC4(C)C3(Br)C(=O)CC12C (stereo not given) the results were Rango complex inh 1.4% and Rango release inh 4%.
COc1ccc(S(=O)(=O)N2CCC(C(=O)NCCOc3ccccc3F)CC2)cc1OC was read as Rango complex inh -0.1% and Rango release inh -7%.
Screening CC1(C)CC(=O)C2=C(C1)OC(N)=C(C#N)C2c1cc2c(cc1[N+](=O)[O-])OCO2 (stereo not given) returned miR-21 reporter -11%, Rango complex inh inconclusive, Rango release inh 16µM* and GLA inh pH 4.5 -10.

An excerpt; count on the stated rates, not on these rows.
